Screens deposited in PubChem by National Center for Advancing Translational Sciences (NCATS).
AmpC inh no det – blocks E. coli AmpC beta-lactamase in absence of detergent | P00811 | AmpC nitrocefin hydrolysis, absorbance 480 nm, no detergent; potencies from a single point are estimates | Potency, µM (highest dose often 28.7 µM), inactives show at the top dose activity change, negative = inhibition | hit rate 1.8% among 71,000 | AID 585; active = falling curve, for most hits resting on a single point; inconclusive = weak or doubtful change; inactive = flat or rising curve; note: % of control where 0% means no effect; about half of the hits show no inhibition at the top dose; a quarter of the inactives give rising signals
Target sequence (P00811 whole entry, looked up): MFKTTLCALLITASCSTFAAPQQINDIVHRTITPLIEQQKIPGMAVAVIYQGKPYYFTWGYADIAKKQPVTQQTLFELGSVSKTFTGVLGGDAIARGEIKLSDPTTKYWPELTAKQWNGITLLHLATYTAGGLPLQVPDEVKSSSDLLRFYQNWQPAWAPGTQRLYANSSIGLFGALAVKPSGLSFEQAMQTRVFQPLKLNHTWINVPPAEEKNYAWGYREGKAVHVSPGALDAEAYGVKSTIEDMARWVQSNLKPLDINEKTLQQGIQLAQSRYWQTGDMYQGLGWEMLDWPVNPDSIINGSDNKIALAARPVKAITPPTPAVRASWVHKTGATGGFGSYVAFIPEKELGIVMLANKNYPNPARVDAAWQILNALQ
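AmpC in 20 mM phosphate buffer pH 7.0 was preincubated 15 min at room temperature with compounds. Nitrocefin (800 uM stock) was then added and hydrolysis followed at 480 nm every 20 s for 4 min.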
* = called active by the depositor; [ ] = dose if it differs, or a comment. Potency is the fitted concentration of half-maximal effect.

SMILES	AmpC inh no det
COc1ccc(C2C(C(C)=O)=C(O)C(=O)N2c2cccnc2)c(OC)c1 (stereo not drawn)	-6%
O=C(Nc1ccncc1)c1cc2ccccc2o1	-8%
CNC(=O)c1cc2c(=O)n3cc(C)ccc3nc2n(C(C)C)c1=N	-19%
CCOC(=O)c1ccn(-c2nc(-c3ccco3)cc(C(F)(F)F)n2)n1	115%
O=C(Nc1ccc2c(c1)OCO2)c1nn(-c2ccccc2)c(=O)c2ccccc12	14%
CCOC(=O)CC(=O)CSc1nc(C)nc2c1oc1ccccc12	85%
COc1cccc(-c2cc(C(=O)NCCc3ccccc3)no2)c1	-12%
O=C(NCc1ccco1)c1cc2ccccc2c(=O)o1	-6%
O=C(NCc1ccco1)c1ccc(CN2CCOCC2)cc1	0%
O=c1ccc(Br)c[nH]1	-3%
O=C(c1cnn2c(C(F)F)cc(-c3ccccc3)nc12)N1CCSCC1	67%
c1ccc(CSc2nnc(-c3c[nH]c4ccccc34)o2)cc1	-10%
CC(C)C[C@@H](CC(=O)N[C@@H](CCC(=O)O)CC(=O)O)NC(=O)[C@@H]1CCCC[C@H]1NC(=O)C[C@@H](NC(=O)C[C@H](Cc1c[nH]c2ccccc12)NC(=O)[C@@H]1CCCC[C@H]1N)C(C)C	150%
COCC(=O)N1CCC2(CC1)CCN(c1ccccc1)CC2	75%
Cc1c2c(n3c(nc4ccccc43)c1C#N)N(Cc1ccccn1)CC2	-1%

Two records picked at random from the list so far:
SMILES	AmpC inh no det
O=c1ccc(Br)c[nH]1	-3%
CCOC(=O)CC(=O)CSc1nc(C)nc2c1oc1ccccc12	85%

Other compounds:
SMILES	AmpC inh no det
Cc1nc(NCCO)c2nc(-c3ccccc3)n(CCN(C)C)c2n1	12%
CCCNc1cc(=O)n(C)c(=O)n1C	7%
Cc1cc(C)nc(SCc2ccccc2C#N)n1	8%
Cc1cc(Nc2ccc(Br)cc2)n2nc(C)nc2n1	32%
Cc1cccnc1NC(=O)C(C)Oc1ccccc1 (stereo not drawn)	-6%
CCOc1ccc2ccccc2c1C(=O)N[C@@H]1C(=O)N2[C@@H]1SC(C)(C)[C@@H]2C(=O)O	0.032µM*
O=C(CCCCn1c(=O)c2ccccc2n(CC(=O)NC2CCCC2)c1=O)NC1CCCC1	-5%
CCS(=O)(=O)NCCc1csc(-c2ccccc2)n1	8%
Nc1nc(OCc2ccccc2)c2[nH]cnc2n1	9%
Cc1ccc(C(NC(=O)N2CCOCC2)=C(Cl)Cl)cc1F	4%
Cc1ccc(S(=O)(=O)/N=C(\CN2CCOCC2)N2CCCC2)cc1	16%
CN1CCN(c2nc(-c3ccoc3)nc3ccccc23)CC1	39%
CCOCC(=O)Nc1nnc(C2CCCCC2)s1	1%
COc1ccc(Cl)cc1-n1c(N)c(C(N)=O)sc1=S	-14%
Brc1ccc(-c2nc(-c3ccccn3)no2)o1	-6%
COC(=O)C1=C(NC(=O)c2cccc(OC)c2)CCS1	4%
COc1ccc2c(c1OC)C(=O)N1C2SC[C@H]1C(=O)NC1CC(C)(C)NC(C)(C)C1 (stereo partly drawn)	0%
C[C@H]1CC[C@@]2(NC1)O[C@@H]1C[C@@H]3[C@@H]4CC=C5C[C@@H](O)CC[C@]5(C)[C@@H]4CC[C@]3(C)[C@H]1[C@@H]2C	-17%[5.75 µM]
CCN(CC(=O)Nc1ccc(S(N)(=O)=O)cc1)S(=O)(=O)c1cc(C)ccc1OC	-20%
CC1(C)CC(=O)C(CCC(=O)c2ccccc2)C(C)(C)N1 (stereo not drawn)	-18%
CO/N=C(\C(=O)N[C@@H]1C(=O)N2C(C(=O)[O-])=C(C[N+]3(C)CCCC3)CS[C@@H]12)c1csc(N)n1	-12%[12.8 µM]
Cn1c(=O)n(CCN2CCOCC2)c(=O)c2c1nc1n2CCCN1c1ccccc1	5%
CCOC(=O)Cc1nnc2c(Nc3ccccc3F)nc3nonc3n12	2%
COc1ccc(Oc2c(C)oc3cc(OC(=O)N4CCOCC4)ccc3c2=O)cc1	81%
O=C(c1ccncc1)N1CCC2(CCN(Cc3nccs3)CC2)CC1	8%
O=C(O)[C@@H](O)c1ccc(F)cc1	4%[5.75 µM]
CCOc1ccc(-c2nc(CSCC(=O)N3CCN(C(=O)c4ccco4)CC3)c(C)o2)cc1	149%
CC(C)n1c(CN2CCN(C)CC2)nc2c1c(=O)n(C)c(=O)n2C	-4%
Cc1cc(NC(=O)c2cccc(COc3ccc(Br)cc3)c2)no1	4µM*[single pt active]
COc1ccccc1CCn1c(=O)cnc2cncnc21	34%
COC(=O)c1nnn(Cc2ccccc2)c1N	-2%
COc1ccc(CCNC(=O)CSc2nc(-c3ccco3)cc(C(F)(F)F)n2)cc1	64%
Cc1ccc(-c2nn3c(C)nnc3s2)cc1NC(=O)c1ccc(OC(C)C)cc1	141%
COc1ccc(OC)c(N=Cc2c(O)[nH]c3ccccc23)c1	13%
CCOC(=O)c1cccc(NC(=O)c2cccs2)c1	-16%
Cc1onc(-c2ccccc2Cl)c1C(=O)OCC(=O)Nc1ccc2c(c1)OCO2	2%
CCOC(=O)C1CCc2nc3ccccc3c(=O)n21 (stereo not drawn)	2%
COc1ccc(NC(=O)CSc2nnc(-c3ccc(C)cc3)n2N)cc1	7%
CC(=O)N1CCc2cc(Br)cc(S(=O)(=O)N3CCCCCC3)c21	79%
O=C1CC(c2cccc(Oc3ccccc3)c2)NC(=O)N1 (stereo not drawn)	-7%
Brc1ccc2oc3c(N4CCOCC4)ncnc3c2c1	43%
c1ccc(-c2nc3cnccn3c2Nc2ccc3c(c2)OCCO3)cc1	18%
CCc1nc(SCC(=O)Nc2ccc(C(=O)O)cc2)n[nH]1	-1%
O=C(Nc1ccc2c(c1)OCO2)c1cn(Cc2ccc(F)cc2)nn1	-24%
COc1ccccc1OCC(=O)O	-4%
Cc1ccc(C)c(N2CCN(C(=O)C3CCCN(S(=O)(=O)c4c(C)noc4C)C3)CC2)c1 (stereo not drawn)	124%
COc1ccc(S(=O)(=O)N2CCN(c3ncnc4c(-c5ccccc5)nsc34)CC2)cc1	12%
c1ccc(-n2nnc3ccccc32)nc1	-10%
CN1CCN(Cc2nc3c(c(=O)n(C)c(=O)n3C)n2CCCc2ccccc2)CC1	25%
CS(=O)(=O)Nc1ccccc1C(=O)N1CCCC1	-1%
COc1ccc(Cl)cc1N1C(=O)[C@@H]2C(c3cccc(OC)c3OC)=NO[C@@H]2C1=O	7%
NS(=O)(=O)c1ccc(NCc2cnc3ccccc3c2)cc1	-3%[5.75 µM]
COc1ccc(CNC(=O)c2cc3c(=O)n4ccccc4nc3n(Cc3cccnc3)c2=N)cc1	73%
Nc1ccccc1C#Cc1ccccc1	-5%
CC(C)(C)c1cc(NC(=O)C2CCCO2)no1 (stereo not drawn)	-5%
C=CCn1c(SCc2nc3ccccc3nc2C)nnc1-c1ccoc1C	51%
COCCN1C(=O)c2oc3cc(C)c(C)cc3c(=O)c2C1c1cccc(O)c1 (stereo not drawn)	64%
Cc1csc(NC(=O)C2CCCO2)n1 (stereo not drawn)	4%
Nc1ncnc2c1ncn2CCCCC(=O)O	3%[5.75 µM]
CCn1nc(NS(=O)(=O)c2ccccc2)c2cc3cccc(C)c3nc21	-5%

Other entries
SMILES	AmpC inh no det
O=C1c2oc3ccc(Br)cc3c(=O)c2C(c2cccc(F)c2)N1CCO (stereo not drawn)	-15%
COc1ccccc1CN1CC[C@@]2(CCCN(C(=O)c3ccncc3)C2)C1	20%
O=C(OCCCCN1C(=O)c2ccccc2C1=O)c1n[nH]c2ccccc12	33%
O=C(NCc1nnc(SCC(=O)N2CCCCCC2)o1)c1ccco1	-9%
CN1CCN(Cc2c(C#N)c3ccccc3n2C)CC1	-7%
COc1ccc(S(=O)(=O)Nc2ccccc2C(=O)OC2CCCN(C)C2)cc1OC (stereo not drawn)	64%
CC(C)OCCCN1C(=O)c2[nH]nc(-c3ccccc3O)c2C1c1cccc(Cl)c1 (stereo not drawn)	44%
COc1ncc2nc(-c3cc(F)cc(F)c3)c(=O)n(CCC#N)c2n1	24%
CS(=O)(=O)N(CC(=O)Nc1cccnc1)c1ccc2c(c1)OCO2	-7%
CCOC(=O)C1=C(c2ccccc2)Nc2ncnn2C1c1cccc(OC)c1OC (stereo not drawn)	40%
CCCN1CCN(C(=O)CN2C(=O)CC(C)(C)S(=O)(=O)c3ccccc32)CC1	-2%
CCc1ccc(N2CC(C(=O)NCc3ccc4c(c3)OCO4)CC2=O)cc1 (stereo not drawn)	10%
CC[C@H](CO)NC(=O)[C@H]1C=C2c3cccc4[nH]cc(c34)C[C@H]2N(C)C1	0%
COc1cc2c(cc1OC)-c1cc(NC3CCCCCCC3)nc(=O)n1CC2	50%
Cc1cc(C(=O)OCC(=O)c2c(N)n(C)c(=O)n(C)c2=O)c(C)o1	17%
CCN(CC)S(=O)(=O)c1ccc(-c2nnc(SCC(=O)Nc3nc(C)cs3)o2)cc1	21%
COc1ccc(-c2nc(CSCC(=O)N3CCc4ccccc4C3)c(C)o2)cc1OC	130%
CCOc1ccc(S(=O)(=O)Nc2ccccc2C(=O)NCc2ccco2)cc1	-18%
O=C(OCn1nnc2ccccc2c1=O)C1=COCCO1	3%
CCCCN(C)C(=O)c1sc2ncn(CC)c(=O)c2c1C	6%
CC(=O)N(C1=NCCCS1)c1ccc(F)cc1	0%
CC(=NCCCNC1CCCCC1)C1=C(O)CC(C)(C)CC1=O	1%
COc1ccccc1-n1c(CNC(=O)COc2ccccc2)n[nH]c1=S	2%
O=c1cc(O)c2c(=O)n(-c3ccccc3)c3ccccc3c2o1	-15%
CCCCCOc1ccc(NC(=O)CCCC(=O)O)cc1	-9%
CC(=O)c1nc(N2C(=O)C3CC=C(C)CC3C2=O)sc1C (stereo not drawn)	6%
Cc1nc(N2CCN(c3ccccc3)CC2)nc2c1C(=O)CC(c1ccccc1)C2 (stereo not drawn)	-14%
O=C(O)C1CCN1C1CCCCC1 (stereo not drawn)	-2%
CCc1cc2c(cc3c(=O)n(CC(=O)N4CCN(c5ccccn5)CC4)nc(CC)n32)s1	91%
COc1ccc(OC)c(C(=O)COC(=O)c2ccc(C)o2)c1	4%
CCOC(=O)c1c(NC(=O)CSc2nnnn2C)sc(C)c1C	65%
Cc1ccc(-n2sc3ccccc3c2=O)cc1S(=O)(=O)N1CCCCC1	-1%
COc1ccccc1N1CCN(CC(=O)c2ccc3ccn(C(C)=O)c3c2)CC1	59%
CC(=O)N1CCC2(CCCN(c3ccccn3)C2)CC1	2%
COc1ccc(N=C2SC(C(=O)O)CC(=O)N2Cc2ccc(OC)c(OC)c2)cc1 (stereo not drawn)	6%
Cc1ccc(C2C3=C(CC(C)(C)CC3=O)Nc3n[nH]c(C)c32)cc1 (stereo not drawn)	-13%
COc1ncc2nc(-c3cc(F)cc(F)c3)c(=O)n(Cc3cccs3)c2n1	-8%
NC[C@@H](Cc1ccccc1)P(=O)(O)O	5%[5.75 µM]
Cn1c(=O)c2c(nc(CN3CCN(CCO)CC3)n2CCc2ccccc2)n(C)c1=O	3%
O=C(CCN1C(=O)c2ccccc2C1=O)Nc1ccncc1	-11%
Cc1nonc1NC(=O)CSc1nnc(-c2ccoc2C)n1C	-1%
O=C(COC(=O)c1ccc(S(=O)(=O)N2CCOCC2)cc1)Nc1nc(-c2ccccc2)cs1	-10%
CCOc1ccc(N(CC(=O)Nc2ccccc2C)S(=O)(=O)c2c(C)noc2C)cc1	34%
CCN(CC)CCN1C(=O)c2oc3ccccc3c(=O)c2C1c1ccccc1 (stereo not drawn)	11%
COc1ccc(NC2=C(C)C(=O)CC2)cc1	1%
Cc1nc(NC(=O)C2CC3CCCC(C2)C3=O)sc1C (stereo not drawn)	-1%
O=C(NCCN1CCOCC1)c1c(F)c(F)c(F)c(F)c1F	7%
CC(=O)Nc1cccc(NC(=O)C2CC3CCC2C3)c1 (stereo not drawn)	-6%
OC(Cc1nc2ccccc2[nH]1)c1ccccc1Cl (stereo not drawn)	-2%
Cc1ccc(-c2nn3c(C)nnc3s2)cc1N	30%
O=C(NC1=NCCS1)c1cc2ccccc2o1	-6%

Among those listed so far, 17 contain a furan ring, fused or not.
SMILES	AmpC inh no det
O=C(Nc1ccncc1)c1cc2ccccc2o1	-8%
CCOC(=O)c1ccn(-c2nc(-c3ccco3)cc(C(F)(F)F)n2)n1	115%
CCOC(=O)CC(=O)CSc1nc(C)nc2c1oc1ccccc12	85%
O=C(NCc1ccco1)c1cc2ccccc2c(=O)o1	-6%
O=C(NCc1ccco1)c1ccc(CN2CCOCC2)cc1	0%
CN1CCN(c2nc(-c3ccoc3)nc3ccccc23)CC1	39%
Brc1ccc(-c2nc(-c3ccccn3)no2)o1	-6%
CCOc1ccc(-c2nc(CSCC(=O)N3CCN(C(=O)c4ccco4)CC3)c(C)o2)cc1	149%
COc1ccc(CCNC(=O)CSc2nc(-c3ccco3)cc(C(F)(F)F)n2)cc1	64%
Brc1ccc2oc3c(N4CCOCC4)ncnc3c2c1	43%
C=CCn1c(SCc2nc3ccccc3nc2C)nnc1-c1ccoc1C	51%
O=C(NCc1nnc(SCC(=O)N2CCCCCC2)o1)c1ccco1	-9%
Cc1cc(C(=O)OCC(=O)c2c(N)n(C)c(=O)n(C)c2=O)c(C)o1	17%
CCOc1ccc(S(=O)(=O)Nc2ccccc2C(=O)NCc2ccco2)cc1	-18%
COc1ccc(OC)c(C(=O)COC(=O)c2ccc(C)o2)c1	4%
Cc1nonc1NC(=O)CSc1nnc(-c2ccoc2C)n1C	-1%
O=C(NC1=NCCS1)c1cc2ccccc2o1	-6%

A portion of the library; the hit share may differ from the screen's.
